Screening results: PubChem, National Center for Advancing Translational Sciences (NCATS)
D2 ag: agonists of human D2 dopamine receptor (beta-arrestin) | 360,000 compounds, 0.084% hits | P14416 | DiscoveRx PathHunter D2 beta-arrestin, luminescence, 90 min; 100% = 57 uM dopamine signal | activation, % (test concentration not listed); in the data active = activation above about 40%; inconclusive = about 15% to 40%; inactive = below about 15%; note: compound concentration not given in the record; the text of the record calls up to 30% inactive
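DiscoveRx PathHunter D2 beta-arrestin cells (2,100/well) attached overnight, then compound-stimulated 90 min at 37 C in HBSS/10 mM HEPES/0.1% Tween-20 buffer; beta-galactosidase complementation read by luminescence after 1 h at ambient temperature. Dopamine 57 uM final (EC100) as control.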
TRPV1 PAM: potentiators of human vanilloid receptor 1 (TRPV1). AID 540277. TRPV1-expressing cells, Fluo-8 calcium influx, capsaicin EC20 potentiation; host cell line not named in the record; control for the full effect not named in the record. Q8NER1. 320,000 compounds, 0.02% hits. potentiation, % at 8.33 µM; active means potentiation above 80%; inconclusive means 30% to 80%; inactive means below 30%; note: 0% is about no effect
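TRPV1-expressing cells were cultured overnight at 35.5C and loaded with Fluo-8 calcium dye for 40 to 90 min at room temperature. After a 10 s baseline, compound was added and calcium influx was read kinetically for 3 min (ex 480/em 520 nm).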
D2 PAM: positive allosteric modulators of human D2 dopamine receptor. DiscoveRx D2 beta-arrestin cells, luminescence, 90 min; 100% = 57 uM dopamine signal. 360,000 compounds, 0.23% hits. P14416. AID 624464. potentiation, % (no concentration beside the values); active = potentiation of 50% or more; inconclusive = 30% to 50%; inactive = 30% or less;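 note: compound concentration not given in the record; tested on top of an EC20 dose of dopamine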
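PathHunter D2 cells, attached overnight at 37 deg C, received compound in DMSO plus dopamine at EC20 (50 nM final) for 90 min at 37 deg C. Beta-arrestin recruitment was read as luminescence after 1 h with detection reagent at ambient temperature.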
PINK1 expr mod: changes PINK1 expression | PINK1 immunofluorescence, high-content cytometry, 24 h | Potency, µM (highest dose often 76.6 µM), for the others: at the highest dose activation (PINK1 increase), usual class: activators | 410,000 compounds, 0.2% hits | AID 624263; active = well fitted activation curve with a large enough effect; inconclusive = small, poorly fitted or top-dose-only effect; inactive = flat fitted curve, though single readings scatter; cell line not stated here;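 note: potency is the fitted concentration of half-maximal effect; % of control where 0% means no effect; nearly all actives have a fitted effect of over 65% in size; a mitochondrial uncoupler was the plate control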
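Decision-based qHTS: stable cells, 24 h exposure to five compound concentrations, CCCP as control. Fixed cells stained for PINK1 plus nuclear, mitochondrial and cell markers, cytometer read.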
Six1-Eya2 inh: blocks human Six1 binding to Eya2 | Q15475+O00167 | AlphaScreen GST-Six1/His-Eya2 binding, biochemical; stronger effect = lower value; control for the full effect not named in the record | activity change, % (test concentration not listed) | 360,000 compounds, 0.56% hits | AID 651725; in the data active = activity change below about -65%; inconclusive = about -30% to -65%; inactive = above about -30%; note: % is set by controls: 0 for no effect and ±100 for the full control effect
Target sequence (O00167 whole entry, looked up): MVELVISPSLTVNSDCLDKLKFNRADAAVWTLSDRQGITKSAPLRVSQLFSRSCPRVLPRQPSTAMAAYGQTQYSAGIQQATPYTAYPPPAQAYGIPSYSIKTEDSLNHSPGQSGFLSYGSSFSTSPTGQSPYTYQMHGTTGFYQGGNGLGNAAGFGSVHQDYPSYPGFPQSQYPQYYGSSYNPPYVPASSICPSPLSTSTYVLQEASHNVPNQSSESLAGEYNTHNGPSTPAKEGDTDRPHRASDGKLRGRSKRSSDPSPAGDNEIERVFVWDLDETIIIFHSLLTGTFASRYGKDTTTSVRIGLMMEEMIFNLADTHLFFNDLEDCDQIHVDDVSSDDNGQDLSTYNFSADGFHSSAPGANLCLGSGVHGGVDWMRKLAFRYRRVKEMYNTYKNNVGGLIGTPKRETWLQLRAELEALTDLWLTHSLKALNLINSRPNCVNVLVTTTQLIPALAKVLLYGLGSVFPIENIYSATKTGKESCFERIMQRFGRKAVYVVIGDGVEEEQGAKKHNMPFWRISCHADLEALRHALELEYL
Target sequence (Q15475 whole entry, looked up): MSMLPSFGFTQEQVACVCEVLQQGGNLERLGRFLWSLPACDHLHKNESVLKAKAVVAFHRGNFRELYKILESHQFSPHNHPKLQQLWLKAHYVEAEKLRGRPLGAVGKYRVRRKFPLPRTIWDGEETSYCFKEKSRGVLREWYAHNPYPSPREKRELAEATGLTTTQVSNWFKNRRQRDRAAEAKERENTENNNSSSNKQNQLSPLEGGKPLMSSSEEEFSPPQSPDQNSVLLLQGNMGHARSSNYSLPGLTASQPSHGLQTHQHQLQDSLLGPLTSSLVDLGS
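GST-Six1 + His-Eya2 (5X stock: 250/500 nM); Tris pH 8.0, 300 mM NaCl, 0.05% BSA, 0.02% Tween 20; GSH donor/Ni acceptor beads; 1 h 37 °C dark; AlphaScreen readout.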
CtBP-E1A blk: inhibitors of CtBP/E1A interaction; 340,000 compounds, 0.49% hits; activity change, % (concentration not given with the values); AID 651724; AlphaScreen GST-E1A/His-CtBP binding, 1536-well; stronger effect = lower value; control for the full effect not named in the record; in the data active means activity change below about -65%; inconclusive means about -30% to -65%; inactive means above about -30%; note: % is set by controls: 0 for no effect and ±100 for the full control effect
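GST-E1A and His-tagged CtBP (125 nM each as 5X stock) were preincubated with pin-transferred compound for 2 h at 37 °C in the dark, then glutathione donor and nickel acceptor beads were added for 1 h before AlphaScreen reading.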
Sfp inh: inhibitors of Bacillus subtilis Sfp phosphopantetheinyl transferase; Q9F4F7; Biochemical Sfp PPTase activity, qHTS; Potency, µM, inactives show max response, negative = inhibition, hits mostly inhibitors; 310,000 compounds, 3.5% hits; AID 1490; active = well fitted inhibition curve with a large enough effect; inconclusive = small, poorly fitted or top-dose-only effect, or another doubt; inactive = no such curve, though single readings can be large or run the other way;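 note: the enzyme is Sfp with the accession as filed and its product quenches rhodamine fluorescence; potency is the fitted concentration of half-maximal effect; 0% = enzyme reaction without inhibitor and -100% = no enzyme wells; top concentration of the series not given in the record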
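With Hepes-Na pH 7.6 buffer containing 10 mM MgCl2, Sfp (15 nM) modified BHQ-2-YbbR (12.5 uM) using rhodamine-CoA (5 uM). Two reads 30 minutes apart at 525/598 nm yielded each well's rate.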
* = called active by the depositor; ? = inconclusive; . = not tested or not shown; [ ] = another dose, or the depositor's remark.

SMILES	D2 ag	TRPV1 PAM	D2 PAM	PINK1 expr mod	Six1-Eya2 inh	CtBP-E1A blk	Sfp inh
CC1(C(=O)NS(=O)(=O)c2ccc(F)cc2F)CCN1C(=O)C/C=C/c1ccccc1 (centres undefined)	2.2	.	-2	4.4%	2	2	.
CCn1c(=O)n(CC(=O)Nc2ccc(F)cc2)c(=O)c2ccccc21	-4.4	-1	-5	-0.8%	3	-22	23%
CCOC(=O)c1ccc(Oc2c(C)oc3cc(OS(C)(=O)=O)ccc3c2=O)cc1	-3.1	-10	1	1.4%	-7	-14	1%
CC1(C)N=C(N)N=C(N)N1c1ccc(OCC(=O)N2CCOCC2)cc1	-8.9	.	-14	-0.5%	2	-2	.
O=C1c2cccnc2C(=O)N1Cc1ccc(F)cc1	-2.0	-9	-3	6.6%[38.3 µM]	-8	-11	2%
COc1c(OC)c(O)c2c(=O)c(O)c(-c3ccccc3)oc2c1OC	-2.7	-30	8	5.8%	-19	-1	?
CCCN1CCC(Oc2cccc(C(=O)NCCc3ccccc3)c2)CC1	-2.6	1	-6	2.3%	12	-11	-3%
COc1cc(SC)ccc1C(=O)N(Cc1ccccc1)c1ccccn1	-1.0	-7	-13	2.4%	-4	6	2%
COc1cccc(C(C#N)N2N=C(C)CC2(C)C)c1O (centres undefined)	-2.7	10	-9	0.2%[38.3 µM]	4	8	-8%
CCCCc1cc(=O)oc2c(C)c(OCC(=O)N3CCC(C(=O)O)(c4ccccc4)CC3)ccc12	4.7	-20	10	-0.6%	-20	-16	6%
O=S(=O)(N1CCCCC1)n1nnc2ccccc21	-0.2	-11	-3	0.8%[38.3 µM]	4	7	21%
CCOC(=O)C(CSCc1ccccc1)NC(=O)OC(C)(C)C (centres undefined)	-15	-15	12	-2.8%	-4	2	20%
Cc1ccccc1CS(=O)(=O)Cc1ccc(C(=O)NC2CCCCC2)o1	-1.7	-4	-13	-0.5%	-7	-20	7%
Cn1nnnc1SCC(=O)N1CCN(S(=O)(=O)c2ccccc2)CC1	-2.1	0	-1	2.6%	8	6	14%
COc1ccc(Nc2cc(Sc3ccc(OC)cc3)ncn2)cc1	-4.1	21	-4	-2.8%	-3	-5	-3%
CCCCCC(=O)O/N=C(\C)c1ccn(S(=O)(=O)c2ccccc2)c1	-1.0	-7	-7	1.1%	2	15	8%
Cn1nccc1/C=C(/C#N)S(=O)(=O)c1ccccc1	-1.9	-4	-6	0.0%	1	6	5%
Cn1c(SCC(=O)Nc2sccc2C#N)nnc1C1CC1	-3.1	.	-19	-0.4%	-11	-3	.
O=C(NNC(=O)c1ccc(Cl)c(Cl)c1)c1cccnc1	0.4	-18	0	-0.1%	3	6	7%
CCCN1CCC(=O)N([C@H](CN=[N+]=[N-])Cc2ccccc2)CC1	-3.2	-14	-13	1.4%	-3	0	15%
CCc1cc2cccc(C)c2nc1SCC(=O)N1CCN(C(=O)c2ccco2)CC1	-1.5	-12	-4	-2.0%	-2	-3	-13%
CCCCOC(=O)Nc1ccc(S(=O)(=O)Nn2cnnc2)cc1	6.8	?	10	-0.7%[38.3 µM]	4	8	-3%
CCCOc1ccc(-c2c(C(=O)N/N=C/c3ccc(OC)cc3)nnn2-c2nonc2N)cc1	-0.9	4	-1	0.4%	-6	0	10%
COc1cccc(-c2noc(CCCC(=O)NC3CCCC3)n2)c1	4.0	6	-1	-0.6%	2	5	24%
CCc1ccc(NC(=S)N2CCNC(=O)C2CC(=O)OC)cc1 (centres undefined)	2.6	3	-1	1.1%	4	2	9%
CC(=O)c1c(C)[nH]c(C(=O)CN2C(=O)NC(C)(CCC(C)C)C2=O)c1C (centres undefined)	-2.0	-3	-2	6.5%	5	-7	1%
Nc1nc(CN2CCN(c3ccccc3)CC2)nc(Nc2ccc(Cl)cc2)n1	43*	2	?	-0.3%	-16	-17	8%
COc1ccc(Cl)cc1NC(=O)CN1C(=O)CC(C)S(=O)(=O)c2ccccc21 (centres undefined)	-2.5	-16	-7	-0.7%	17	-2	-17%
O=C(N=Nc1c(O)[nH]c2ccccc12)c1ccc2c(c1)OCO2	-4.8	1	-10	6.5%	3	.	-4%
CCn1c(Cc2ccccc2)nnc1SCC(=O)OC(C)C	0.2	12	-12	-0.2%[38.3 µM]	6	-2	12%
CCCC(=O)NC(c1cccs1)c1cc([N+](=O)[O-])c2cccnc2c1O (centres undefined)	-0.2	1	5	-0.2%	-90*	-85*	2.5µM*
Cc1cc(O)ccc1Nc1nc2ccccc2nc1Nc1ccc(O)cc1C	11	-6	?	1.7%	-12	-28	56µM*
CCOC(=O)c1[nH]c2cc(OC)c(OC)cc2c1N	8.6	3	?	2.0%	-5	-7	45µM*
COc1cc(C(=O)NNC(=O)C2CCC2)cc(OC)c1OC	-2.0	6	-2	1.6%	0	6	.
COCC(O)CNc1ccccc1 (centres undefined)	0.9	-2	-14	1.1%	0	9	-5%
Clc1ccc(CN2C3=NCCN3c3ccccc32)cc1	-2.3	7	-32	4.1%	-7	-9	8%
CCC(C)N(C(=O)COC(=O)CN=C1NS(=O)(=O)c2ccccc21)C1CCS(=O)(=O)C1 (centres undefined)	-3.2	26	-2	0.0%	12	.	.
O=C(Nc1ccc(N2CCOCC2)cc1)c1csc(COCCO)n1	-1.6	.	-1	3.5%	8	-10	.
NC(=O)c1nc[nH]c1C(=O)Nc1cccc(C(F)(F)F)c1	3.9	5	2	0.1%	-13	-7	.
O=C(NCc1nc2ccccc2[nH]1)c1cccs1	-3.0	7	-12	-0.1%	1	2	0%
Cn1cc(S(=O)(=O)N2CCC(C(N)=O)CC2)c(=O)n(C)c1=O	-2.5	6	0	0.3%	6	9	2%
Cc1ccc(-c2noc(Cn3nc(C(=O)O)c4ccccc4c3=O)n2)cc1	3.6	3	-1	1.0%	-3	3	13%
CC(=O)OCC(OC(C)=O)C(OC(C)=O)C(OC(C)=O)C(=O)Nc1ccc(C)cc1C (centres undefined)	-6.4	-1	-10	7.1%[38.3 µM]	-1	5	12%
CCOCCCNC(=O)/C(C#N)=C/c1ccccc1F	-5.3	27	1	1.9%	4	6	9%
O=C(CN1C(=O)S/C(=C\c2ccc(O)cc2)C1=O)c1ccccc1	-2.9	-9	-5	?	-13	-2	-16%
O=C(N=C1SC2CS(=O)(=O)CC2N1c1cccc(F)c1)C1CC1 (centres undefined)	-5.8	2	0	2.5%	11	.	2%
COc1cccc(CN(C)C(=O)c2ccc(N3CCCC3)c([N+](=O)[O-])c2)c1	-1.6	-9	-5	-0.5%	-17	-17	1%
O=C(OCc1ccccc1)c1cnc(Cl)c(Cl)c1	-6.8	6	-3	1.7%	20	29	2%
COC(=O)/C=C1\N/C(=N\c2nc(C)cc(C)n2)N(c2ccc(Cl)cc2)C1=O	-4.9	-2	-5	1.3%	0	1	17%
Cc1nnc2n1NC(c1ccc(Cl)cc1)C(C(=O)N1CCC(C)CC1)S2 (centres undefined)	-1.0	?	-20	1.3%	1	8	1%

3 entries already listed, sorted by the value under PINK1 expr mod, descending.
SMILES	PINK1 expr mod
COC(=O)/C=C1\N/C(=N\c2nc(C)cc(C)n2)N(c2ccc(Cl)cc2)C1=O	1.3%
Cn1cc(S(=O)(=O)N2CCC(C(N)=O)CC2)c(=O)n(C)c1=O	0.3%
COc1cccc(CN(C)C(=O)c2ccc(N3CCCC3)c([N+](=O)[O-])c2)c1	-0.5%

Other structures follow.
SMILES	D2 ag	TRPV1 PAM	D2 PAM	PINK1 expr mod	Six1-Eya2 inh	CtBP-E1A blk	Sfp inh
O=C(/C=C/c1ccccc1)c1ccccc1	-5.0	-10	-4	0.7%	-1	5	?
Cc1ccc(C(=O)N/N=C2\CCCc3ccccc32)c(C)c1	-3.0	11	-8	2.7%	0	0	5%
O=C(OCC(=O)c1ccc[nH]1)c1ccc([N+](=O)[O-])cc1	?	-3	5	-0.5%	-1	.	.
COC(=O)c1ccc(-c2csc(NC(=O)c3ccc(S(=O)(=O)N4CCc5ccccc5C4)cc3)n2)cc1	-3.2	-10	-1	1.0%	13	29	11%
O=C(c1ccccc1)c1nn(-c2ccc(Cl)cc2)c(=O)cc1C(F)(F)F	-0.9	.	-2	-0.6%	-15	?	-6%
COC(=O)[C@H]1Cc2cnoc2C[C@]1(C)C(=O)O	-1.0	2	-8	-0.1%	8	3	-1%
Cc1nn(Cc2ccccc2Cl)c(C)c1NC(=O)C1C2CCC(O2)C1C(=O)O (centres undefined)	-4.9	1	6	2.2%	7	-16	5%
c1ccc(-c2noc(-c3ccno3)n2)nc1	-6.3	.	-11	3.4%	2	.	6%
CC(C)C[C@H](NC(=O)OC(C)(C)C)C(=O)N[C@@H](CO)[C@H](O)[C@@H]1C[C@@H]1C(=O)NC1CCCCC1	0.6	3	-26	-0.2%	29	12	12%
O=C(CN1CCN(C(C(=O)Nc2ccc(F)cc2)c2ccccc2)CC1)NC1CC1 (centres undefined)	-5.5	11	-18	2.6%	5	-2	.

Grouped by structure: the compounds so far containing a thiophene ring, fused or not (3)
SMILES	D2 ag	TRPV1 PAM	D2 PAM	PINK1 expr mod	Six1-Eya2 inh	CtBP-E1A blk	Sfp inh
Cn1c(SCC(=O)Nc2sccc2C#N)nnc1C1CC1	-3.1	.	-19	-0.4%	-11	-3	.
CCCC(=O)NC(c1cccs1)c1cc([N+](=O)[O-])c2cccnc2c1O (centres undefined)	-0.2	1	5	-0.2%	-90*	-85*	2.5µM*
O=C(NCc1nc2ccccc2[nH]1)c1cccs1	-3.0	7	-12	-0.1%	1	2	0%
